# Compound activity (PubChem BioAssay)
# MARV entry inh: Marburg virus entry inhibition. Marburg virus pseudotyped entry inhibition, cell reporter; control for the full effect not named in the record; about a third of the inactives were read at about 46 µM. Potency, µM (highest dose often 37.8 µM), for inactives: top-dose activity change, negative = inhibition, usual class: inhibitors. 300,000 tested, 1.8% active. AID 540276; active = well fitted inhibition curve with a large enough effect; inconclusive = small, poorly fitted or top-dose-only effect, or effect the other way; inactive = flat fitted curve, though single readings scatter; tested in HEK293 cells; about a fifth of its hits are not listed in these tables; note: % is set by controls: 0 for no effect and ±100 for the full control effect; luciferase read-out
# RE007 growth inh: less growth of the S. pombe RE007 Vpr strain | S. pombe RE007 Vpr strain, BacTiter-Glo ATP luminescence, 24 h; control for the full effect not named in the record | Potency, µM (top dose mostly 92.2 µM), without a hit: at the highest dose activity change, negative = less growth | 360,000 tested, 0.21% active | AID 651644; active = well fitted falling curve with a large enough effect; inconclusive = small, poorly fitted or top-dose-only effect; inactive = no such curve, though single readings can be large or run the other way;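 note: % is set by controls: 0 for no effect and ±100 for the full control effect; nearly all actives have a fitted effect of over 50% in size; the assay follows cell death caused by Vpr and the record does not say whether a fall means rescue or toxicity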
#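 Fission yeast strain RE007, carrying one chromosomally integrated HIV-1 vpr copy, was seeded at OD 0.01 in PMG+AL medium with 23 nL pinned compound. After 24 h at 30 °C and 99% humidity, viability was read by BacTiter-Glo luminescence.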
# Cruzain inh Det: cruzain (T. cruzi) inhibition with detergent | P25779 | purified cruzain, Z-FR-AMC fluorescence, 0.01% Triton | Potency, µM, for inactives: max response, negative = inhibition, actives largely listed as inhibitors | 200,000 tested, 0.43% active; active = well fitted curve in the direction sought with a large enough effect; inconclusive = small, poorly fitted or top-dose-only effect, or another doubt; inactive = no such curve, though single readings can be large; an effect the other way counts as inactive or inconclusive;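 note: plate controls were neutral wells for no effect and buffer without enzyme for full effect; nearly all actives have a fitted effect of over 40% in size; top concentration of the series not given in the record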
# Target sequence (P25779 123-467 limits assumed): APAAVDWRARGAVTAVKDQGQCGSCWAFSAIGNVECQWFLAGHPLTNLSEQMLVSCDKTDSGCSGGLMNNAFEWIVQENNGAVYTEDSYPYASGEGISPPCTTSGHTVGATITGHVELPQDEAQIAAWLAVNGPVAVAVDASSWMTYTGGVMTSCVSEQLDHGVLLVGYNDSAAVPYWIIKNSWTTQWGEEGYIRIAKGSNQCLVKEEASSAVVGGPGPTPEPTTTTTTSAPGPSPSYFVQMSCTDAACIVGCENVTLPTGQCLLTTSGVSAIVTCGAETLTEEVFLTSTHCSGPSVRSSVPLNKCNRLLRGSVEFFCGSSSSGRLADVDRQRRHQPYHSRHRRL
#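 Cysteine protease activity tested under reducing, mildly acidic conditions (100 mM sodium acetate pH 5.5, 5 mM DTT) plus 0.01% Triton X-100. Cruzain 1.5 nM; substrate Z-FR-AMC 2 uM; 15 min compound preincubation at room temperature.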
# Cruzain noTriton: inhibitors of Trypanosoma cruzi cruzain without detergent | Potency, µM, for the others: max response, negative = inhibition, actives largely listed as inhibitors | purified cruzain, Z-FR-AMC fluorescence, no detergent | 200,000 tested, 2.3% active | P25779 | AID 1476; active = well fitted curve in the direction sought with a large enough effect; inconclusive = small, poorly fitted or top-dose-only effect, or another doubt; inactive = no such curve, though single readings can be large; an effect the other way counts as inactive or inconclusive;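 note: plate controls were enzyme without inhibitor for no effect and buffer without enzyme for full effect; nearly all actives have a fitted effect of over 40% in size; top concentration of the series not given in the record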
#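 Purified cruzain at 1.5 nM, pre-incubated 15 min with compound at room temperature in 100 mM sodium acetate pH 5.5, 5 mM DTT, 0.00005% Triton X-100. Reaction started with 2 uM Z-FR-AMC; AMC fluorescence increase over 60 s gives rate.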
# StopGo reporter: FMDV 2A StopGo reporter, luciferase signal. human cells with a luciferase reporter of 2A StopGo recoding; control for the full effect not named in the record. Potency, µM (top dose mostly 57.9 µM), without a hit: at the highest dose signal change, negative = less light. 410,000 tested, 1.2% active; active = well fitted falling curve with a large enough effect; inconclusive = small, poorly fitted or top-dose-only effect; inactive = no such curve, though single readings can be large or run the other way; tested in HEK293T cells; note: % is set by controls: 0 for no effect and ±100 for the full control effect; nearly all actives have a fitted effect of over 45% in size; luciferase light after 4 h
# Lassa entry inh: inhibitors of Lassa virus binding or cell entry | Lassa virus pseudotype entry inhibition, cell reporter; control for the full effect not named in the record | Potency, µM (titrated, usually from 37.9 µM), for inactives: top-dose activity change, negative = inhibition, actives largely listed as inhibitors | 300,000 tested, 1.2% active; active means well fitted inhibition curve with a large enough effect; inconclusive means small, poorly fitted or top-dose-only effect, or effect the other way; inactive means flat fitted curve, though single readings scatter; tested in HEK293 cells; note: % is set by controls: 0 for no effect and ±100 for the full control effect; nearly all actives have a fitted effect of over 50% in size; luciferase read-out
# NS1 function inh: influenza NS1 inhibition | S. cerevisiae slowed by influenza A NS1, growth recovery by OD600 | 270,000 tested, 0.4% active | Potency, µM (top dose mostly 46.1 µM), without a hit: at the top dose activity, positive = more growth | AID 2326; note: actives are rising curves; nearly all actives have a fitted effect of over 50% in size
#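 Read-out: OD600 growth recovery of NS1-expressing budding yeast. Cells grown overnight at 30C in -URA glucose medium, washed, resuspended and diluted 1:100 in 2% galactose assay medium, pH 6.0. Same strain lacking NS1 served as positive control.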
# SARS PLP yeast: SARS-CoV PLP inhibition in yeast | S. cerevisiae expressing SARS-CoV PLpro, growth rescue; control for the full effect not named in the record | Potency, µM (top dose mostly 32.9 µM), inactives show at the highest dose activity, positive = growth rescue | 330,000 tested, 0.19% active; note: 0% is about no effect; nearly all actives have a fitted effect of over 55% in size; growth read by luminescence after 48 h
# * = called active by the depositor; u = inconclusive; x = not tested or not shown; & = joins results of further samples; [ ] = dose if it differs, or a comment. Unless noted, calls come from the whole dose curve; as a rule, active means well fitted rising curve with a large enough effect; inconclusive means small, poorly fitted or top-dose-only effect; inactive means no such curve, though single readings can be large or run the other way. Potency is the fitted concentration of half-maximal effect. Not a hit list, and some 4.7% of all compounds hit somewhere here.
SMILES,MARV entry inh,RE007 growth inh,Cruzain inh Det,Cruzain noTriton,StopGo reporter,Lassa entry inh,NS1 function inh,SARS PLP yeast
COc1ccc(Cl)cc1N1C(=O)CC(N2CCN(S(=O)(=O)c3ccccc3F)CC2)C1=O (centres undefined),u,-18%,x,x,-9%,4%[46.1 µM],x,-21%
CSc1nnc(CCNS(=O)(=O)c2ccccc2Br)n1C,-6%[46.1 µM],-8%,x,x,7%,x,7%,-1%
Cc1cc(Cl)c(OCCOCCN2CCCC(C)C2)c(Br)c1 (centres undefined),u,-3%,x,x,-16%,13µM*,-7%,-2%
O=C(CSc1nc(-c2ccco2)cc(C(F)(F)F)n1)N1CCN(c2ccc(Cl)cc2)CC1,-27%,-2%,-10%,2%,u,u,20%,-5%
CCC(Sc1nc2cc3c(cc2c(=O)n1CCCC(=O)NCc1ccc2c(c1)OCO2)OCO3)C(=O)NCCCOC (centres undefined),x,x,2.2%,11%,0%,-12%[46.1 µM],x,x
CC1CCN(CCCNC(=O)C2CCN(S(=O)(=O)N3CCCCC3)CC2)CC1,-21%,-4%,4.9%,-12%,x,20%,-16%,-4%
CCCCCn1c(CN2CCN(C(=O)c3ccco3)CC2)nc2c1c(=O)n(C)c(=O)n2C,0%,-4%,x,x,-20%,x,2%,1%
CN(C)CCCN(C(=O)c1cc(Cl)sc1Cl)c1nc2cc3c(cc2s1)OCO3,x,15%,x,x,-13%,x,-6%,-6%
CCN(C(=O)Cn1c(=O)oc2ccccc21)C1CCS(=O)(=O)C1 (centres undefined),-13%,23%,-1.1%,-8%,0%,2%,-4%,7%
Cc1cccnc1NC(=O)c1c(O)c2cccc3c2n(c1=O)CCC3,9%,u,-3.6%,3%,u,9%,-48%,5%
COc1cc(C(CC(=O)Nc2ccc(Br)cn2)N2Cc3ccccc3C2=O)cc(OC)c1OC (centres undefined),x,x,-10%,-5%,15%,-4%[46.1 µM],x,x
N/C(=N\OC(=O)c1cccc(Cl)c1)c1ccccn1,3.7µM*,-28%,-4.3%,15%,-57%,7.9µM*,-53%,-95%
O=C(O)c1ccc(NCCc2ccc(Cl)cc2)c([N+](=O)[O-])c1,u,-22%,x,x,6%,11%[46.1 µM],x,-5%
C[C@H]1C(c2ccc(F)cc2)=NN(c2ccccc2)[C@@H]1CO,x,-4%,-13%,-11%,-6%,x,x,-79%
CCC(=O)Nc1nnc(C)s1,-3%,14%,1.4%,-3%,-22%,8%,7%,9%
Cc1ccc(S(=O)(=O)NCCOCCNS(=O)(=O)c2ccc(C)cc2)cc1,1%,-2%,-1.9%,4%,6%,1%,-9%,1%
COc1ccc(C(=O)Nc2ccccc2)cc1S(=O)(=O)Nc1cc(C)on1,13%,-4%,2.5%,2%,-7%,8%,-3%,2%
CCN(CC)S(=O)(=O)c1ccc2c(c1)CC(C(=O)N1CCCC1)N2C(C)=O (centres undefined),x,-10%,x,x,-6%,x,1%,-1%
CCOc1cc(/C=N/n2cnnc2)ccc1OS(=O)(=O)c1ccccc1,3%[46.1 µM],5%,x,x,-14%,5%,0%,1%
COc1ccc(NC(=O)C(NS(=O)(=O)c2ccc3c(c2)CCCN3C(C)=O)C(C)C)c(OC)c1 (centres undefined),-2%&-2%,17%,-2.1%,-6%,4%,u,-53%,0%
CCCCn1c(N)c(N(CC(C)C)C(=O)c2cccc(S(=O)(=O)N3CCN(C)CC3)c2)c(=O)[nH]c1=O,19%,-8%,x,x,-7%,1%,x,0%
CC(/C=C/C(=O)c1ccc(C)cc1)=C\c1ccccc1,-1%,-17%,-4.8%,4%,31%[activator],u,-7%,5%
S=C(Nc1ccc2nsnc2c1)N1CCCCC1,4%,-10%,-2.5%,-3%,73%[activator],16%,8%,1%
O=C(CN1C(=O)CCS(=O)(=O)c2ccccc21)NCCc1ccccc1,x,2%,x,x,0%,x,-1%,3%
COc1cc(C(=O)NCCN2C(=O)S/C(=C\c3ccc(F)cc3)C2=O)ccc1OCC(=O)N1CCOCC1,x,4%,x,x,-9%,x,1%,1%
CC(OC(=O)CCCN=C1NS(=O)(=O)c2ccccc21)C(=O)NC1CCCCC1C (centres undefined),23%,1%,x,x,-11%,8%,4%,3%
Cc1ccc(Cl)c(OCC(=O)N(C)CC(=O)Nc2ccc(N3CCOCC3)cc2)c1,8%,1%,x,x,-9%,-19%,x,-7%
Cc1ccsc1/C=N/N1CCN(C2c3ccccc3-c3ccccc32)CC1,u,2%,0.9%,u,-27%,-25%,11%,-1%
N#CC1(Nc2ccc(Br)cc2)CCCC1,u,7%,x,x,-2%,u,x,x
Nc1nc(SCC(=O)c2cccs2)n[nH]1,-2%[46.1 µM],1%,x,x,-6%,17%[46.1 µM],2%,-1%
Cc1ccc(CNC(=O)C2COc3ccccc3O2)cc1 (centres undefined),x,-10%,x,x,65%[activator],x,-2%,0%
Cc1[nH]n2c(=O)c3c(nc2c1-c1cccc2ccccc12)CCC3,u,5%,0.5%,1%,-28%,u,6%,-7%
CC(=O)Oc1cc(C)cc2oc(=O)cc(-c3ccccc3)c12,x,14%,x,x,-5%,x,-10%,-1%
CC(C)C1Nc2ccc(S(=O)(=O)N3CCOCC3)cc2NC1=O (centres undefined),-11%[46.1 µM],9%,x,x,-15%,-25%[46.1 µM],x,-1%
Cn1c(COc2ccc(Cl)cc2)nnc1SCC(=O)NC1CCCCC1,-6%&-1%,8%,x,x,19%,-1%,2%,x
Cc1ccc(SCCSc2ncccn2)cc1,u,3%,x,x,42%[activator],u,-15%,1%
O=C1c2ccccc2NC2(CCCC2)N1N=C1CCCC1,x,-9%,x,x,5%,x,-3%,0%
C=CCn1c(SCC(=O)NC2CCCC2)nnc1-c1ccccn1,0%,0%,x,x,1%,17%,10%,-7%
CC(C)(C)CN1CCNC(=O)C1CC(=O)N1CCN(c2ccccc2)CC1 (centres undefined),x,-2%,x,x,-12%,x,1%,0%
O=C(O)c1ccc(NCc2nc3ccccc3n2CCOc2ccccc2Cl)cc1,-12%&21%[46.1 µM],-8%,-8.0%,u,7%&3%,16%&10%[46.1 µM],x,1%
COc1cc(OC)c(NC(=S)Nc2cc(Cl)cc(Cl)c2)cc1Cl,13%,0%,-10%,u,u,u,-16%,-83%
COCCN=c1scc(-c2cccs2)n1/N=C/c1ccc(O)c(O)c1O,x,-10%,-18%,-23%,1%,x,u,-94%
Cc1ccc(OCc2cc(C(=O)N(C)Cc3cc(C4CC4)n[nH]3)no2)cc1C,x,14%,x,x,5%,x,19%,7%
CCN(CC(=O)NC(C)C)C(=O)Cc1ccc(C)c(C)c1,u,18%,x,x,1%,2%,-6%,1%
Nc1nc(N2CCCCC2)c(C=O)c(N2CCCCC2)n1,-24%[46.1 µM],-7%,x,x,13%,u,x,0%
Cn1c(O)c(N=NC(=O)c2ccco2)c2ccccc21,u,-24%,x,x,13%,-18%[46.1 µM],-10%,-2%
CCOC(=O)C1CCN(S(=O)(=O)c2cc(Br)cc3c2N(C(C)=O)C(C)C3)CC1 (centres undefined),-4%&-4%,7%,1.2%,u,-17%,u,-16%,-6%
Cc1c([N+](=O)[O-])cc(C(=O)NCc2ccc(F)cc2)cc1[N+](=O)[O-],-24%[46.1 µM],1%,x,x,-17%,-17%,-1%,4%
Cc1cc(C)n2nc(SCC(=O)c3cc(C)n(-c4cc(C)on4)c3C)nc2n1,-19%,-24%,-1.2%,u,u,-18%,2%,-7%
CC(C)c1ccccc1-n1c(SCc2cc(=O)oc3ccc4ccccc4c23)nnc1-c1cccnc1,u,-21%,-12%,-19%,14µM*,u,u,-7%
COc1cc(NC(=O)c2ccccc2F)c(OC)cc1NC(=O)CN1CCOCC1,1%[46.1 µM],-8%,x,x,38%[activator],-18%,-10%,0%
O=C(c1cc(COc2ccc(F)cc2F)on1)N1CCN(C(=O)c2ccco2)CC1,u,-13%,x,x,-44%,u,-15%,1%
O=C1c2[nH]nc(-c3ccccc3O)c2C(c2ccc(F)cc2)N1CCO (centres undefined),6%[46.1 µM],x,-2.5%,0%,0%,u,x,x
COc1ccc(-n2nc(C(=O)NCC(=O)NCC3CCCO3)c3ccccc3c2=O)c(OC)c1 (centres undefined),1%&1%,4%,1.0%,-5%,3%,3%,1%,-3%
COc1ccc(-c2nnc(SCc3ccc(C(=O)O)cc3)o2)cc1OC,x,-9%,x,x,-1%,x,7%,2%
CSc1ccc(NC(=O)NCCN2CCc3ccccc3C2)cc1,u,2%,-2.1%,-3%,0%,10%,8%,6%
O=C1c2ccccc2C(=O)c2c1cccc2N1CCN(Cc2ccccc2)CC1,u,-29%,-8.8%,8%,u,-3%,-6%,-6%
C=C(C)C1CC=C(C)/C(=N/NC(=O)c2ccoc2C)C1 (centres undefined),1%,5%,1.3%,-2%,-23%,u,-2%,-5%
COc1cccc(C(=O)Nc2nnc(S(=O)(=O)N3CCCc4ccccc43)s2)c1,x,x,-2.8%,-10%,-12%,-3%[46.1 µM],x,x
Cc1ccc(OCCn2ccnc2)c([N+](=O)[O-])c1,x,0%,x,x,-5%,x,7%,9%

# Additional compounds follow:
SMILES,MARV entry inh,RE007 growth inh,Cruzain inh Det,Cruzain noTriton,StopGo reporter,Lassa entry inh,NS1 function inh,SARS PLP yeast
COc1ccccc1N1CCN(CCNC(=O)Nc2cccc(C)c2C)CC1,u,-13%,0.9%,-5%,-13%,u,-31%,4%
CCn1cc(Br)c(C(=O)NN)n1,u,-12%,8.2%,-4%,24%,5%,-3%,3%
CCCOc1ccc(C(=O)Nc2ccc(S(=O)(=O)N3C[C@@H]4C[C@@H](C3)c3cccc(=O)n3C4)cc2)cc1,3%,3%,x,x,-26%,x,x,0%
O/N=C1\CCC\C1=C/c1ccco1,-13%,-8%,-2.8%,5%,18%,-23%,-6%,-15%
Cc1nc(-c2ccc([N+](=O)[O-])cc2)c(-c2ccccc2)o1,-2%,2%,x,x,u,-16%,-2%,-6%
O=C(c1ccco1)N1CCN(C(c2cccs2)c2sc3ncnn3c2O)CC1 (centres undefined),x,-7%,4.5%,-1%,-21%,x,-11%,-6%
O=C(Cc1ccc(Cl)cc1Cl)OCC(=O)N1CCN(C(=O)c2ccco2)CC1,u,0%,x,x,u,-2%,x,0%
